Sfp inh: Sfp phosphopantetheinyl transferase inhibition; Q9F4F7; Biochemical Sfp PPTase activity, qHTS; Potency, µM, inactives show max response, negative = inhibition, actives largely listed as inhibitors; 310,000 compounds, 3.5% hits; AID 1490; active means well fitted inhibition curve with a large enough effect; inconclusive means small, poorly fitted or top-dose-only effect, or another doubt; inactive means no such curve, though single readings can be large or run the other way;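 further: the enzyme is Sfp with the accession as filed and its product quenches rhodamine fluorescence; potency means the concentration at half of the fitted maximal effect; 0% = enzyme reaction without inhibitor and -100% = no enzyme wells; top concentration of the series not given in the record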
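Sfp 15 nM + cpd, 15 min RT; start w/ rhodamine-CoA 5 uM, BHQ-2-YbbR 12.5 uM (final); 50 mM Hepes pH 7.6, 10 mM MgCl2, 0.01% NP-40, 0.01% BSA; read 525/598 nm at 0 and 30 min.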
TRPV1 potentiator: enhances activation of the human vanilloid receptor TRPV1 | TRPV1-expressing cells, Fluo-8 calcium influx, capsaicin EC20 potentiation; host cell line not named in the record; control for the full effect not named in the record | potentiation, % at 8.33 µM | 320,000 compounds, 0.02% hits | AID 540277; active means potentiation above 80%; inconclusive means 30% to 80%; inactive means below 30%; further: 0% is about no effect
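TRPV1-expressing cells were cultured overnight at 35.5C and loaded with Fluo-8 calcium dye for 40 to 90 min at room temperature. After a 10 s baseline, compound was added and calcium influx was read kinetically for 3 min (ex 480/em 520 nm).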
D2 ag: human D2 receptor agonism in beta-arrestin assay. DiscoveRx PathHunter D2 beta-arrestin, luminescence, 90 min; 100% = 57 uM dopamine signal. activation, % (test concentration not listed). 360,000 compounds, 0.084% hits. AID 624465; in the data active = activation above about 40%; inconclusive = about 15% to 40%; inactive = below about 15%; further: compound concentration not given in the record; the text of the record calls up to 30% inactive
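DiscoveRx PathHunter D2 beta-arrestin cells (2,100/well) attached overnight, then compound-stimulated 90 min at 37 C in HBSS/10 mM HEPES/0.1% Tween-20 buffer; beta-galactosidase complementation read by luminescence after 1 h at ambient temperature. Dopamine 57 uM final (EC100) as control.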
PINK1 expr mod: PINK1 expression modulation | PINK1 immunofluorescence, high-content cytometry, 24 h | Potency, µM (top dose mostly 76.6 µM), without a hit: at the top dose activation (PINK1 increase), usual class: activators | 410,000 compounds, 0.2% hits | AID 624263; active = well fitted activation curve with a large enough effect; inconclusive = small, poorly fitted or top-dose-only effect; inactive = flat fitted curve, though single readings scatter; cell line not stated here;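 further: potency means the concentration at half of the fitted maximal effect; % of control where 0% means no effect; nearly all actives have a fitted effect of over 65% in size; a mitochondrial uncoupler was the plate control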
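Fluorescence from anti-PINK1 antibody, together with nuclear and cell stains, was scanned on a laser-scanning cytometer. Before staining, stable-line cells were incubated 24 hours with compounds at 5 concentrations; primary antibody 12 h at 10 degrees C.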
D2 PAM: potentiates the human D2 dopamine receptor allosterically. potentiation, % (test concentration not listed). AID 624464. DiscoveRx D2 beta-arrestin cells, luminescence, 90 min; 100% = 57 uM dopamine signal. 360,000 compounds, 0.23% hits; active = potentiation of 50% or more; inconclusive = 30% to 50%; inactive = 30% or less;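 further: compound concentration not given in the record; tested on top of an EC20 dose of dopamine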
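D2 cells co-treated with compound plus 50 nM dopamine (EC20) for 90 min at 37 deg C to detect potentiation. Beta-arrestin recruitment was read as enzyme-fragment luminescence after 1 h at ambient temperature. Full response was set by 57 uM dopamine.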
CtBP-E1A inh: blocks the CtBP interaction with E1A; 340,000 compounds, 0.49% hits; AlphaScreen GST-E1A/His-CtBP binding, 1536-well; active compounds read low; control for the full effect not named in the record; activity change, % (test concentration not listed); in the data active means activity change below about -65%; inconclusive means about -30% to -65%; inactive means above about -30%; further: on the % scale 0 is the no-effect control and ±100 the full control effect
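AlphaScreen with 125 nM GST-E1A and 125 nM His-CtBP (5X stocks) in Tris pH 8.0, 300 mM NaCl, BSA, Tween 20, TCEP. Compounds preincubated 2 h at 37 deg C, then glutathione donor/nickel acceptor beads added for 1 h at 37 deg C in dark.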
Six1-Eya2 blk: Six1/Eya2 interaction inhibition; 360,000 compounds, 0.56% hits; AlphaScreen GST-Six1/His-Eya2 binding, biochemical; active compounds read low; control for the full effect not named in the record; activity change, % (test concentration not listed); Q15475+O00167; in the data active = activity change below about -65%; inconclusive = about -30% to -65%; inactive = above about -30%; further: on the % scale 0 is the no-effect control and ±100 the full control effect
Target sequence (O00167 whole entry, looked up): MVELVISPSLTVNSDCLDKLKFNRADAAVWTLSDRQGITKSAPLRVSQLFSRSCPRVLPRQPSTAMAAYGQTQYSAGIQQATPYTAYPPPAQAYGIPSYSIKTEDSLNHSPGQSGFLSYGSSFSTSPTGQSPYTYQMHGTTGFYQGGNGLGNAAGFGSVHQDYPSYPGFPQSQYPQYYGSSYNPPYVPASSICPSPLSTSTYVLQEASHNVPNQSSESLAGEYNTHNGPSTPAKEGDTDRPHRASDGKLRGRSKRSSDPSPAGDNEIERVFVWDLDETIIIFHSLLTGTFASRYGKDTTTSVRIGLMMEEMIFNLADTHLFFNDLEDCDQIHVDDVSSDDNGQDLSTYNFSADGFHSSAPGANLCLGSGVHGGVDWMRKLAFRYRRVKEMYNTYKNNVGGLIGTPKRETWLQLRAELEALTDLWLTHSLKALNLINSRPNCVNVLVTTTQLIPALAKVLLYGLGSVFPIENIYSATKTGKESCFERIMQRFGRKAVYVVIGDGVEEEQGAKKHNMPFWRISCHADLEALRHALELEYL
Target sequence (Q15475 whole entry, looked up): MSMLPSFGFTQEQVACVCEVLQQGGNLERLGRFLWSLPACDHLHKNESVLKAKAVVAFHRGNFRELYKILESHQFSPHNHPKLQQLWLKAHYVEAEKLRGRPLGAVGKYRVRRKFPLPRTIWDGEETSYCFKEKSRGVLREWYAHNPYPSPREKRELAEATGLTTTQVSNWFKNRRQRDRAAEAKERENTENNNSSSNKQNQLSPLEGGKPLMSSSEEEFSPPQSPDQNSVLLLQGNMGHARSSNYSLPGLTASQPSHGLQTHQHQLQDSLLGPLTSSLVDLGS
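AlphaScreen with GST-Six1 and His-Eya2 (5X mix: 250 nM and 500 nM), glutathione donor and nickel acceptor beads; buffer 50 mM Tris pH 8.0, 300 mM NaCl, 1 mM TCEP; 1 h at 37 C in the dark.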
The depositor's hits bear a star; ? = inconclusive; / = not tested or not shown; & = joins results of further samples; [ ] = dose if it differs, or a comment. Not a hit list, and some 3.7% of all compounds hit somewhere here.

nr	compound	Sfp inh	TRPV1 potentiator	D2 ag	PINK1 expr mod
1	CCOC(=O)N1CCN(S(=O)(=O)N2CCCC(C(=O)NCc3ccc(C)cc3)C2)CC1 (stereo not given)	/	/	0.5	2.2%
2	O=C(NCCCN1CCCC1=O)Nc1ccccc1F	2%	2	-2.5	-1.0%
3	O=C(NCCCc1ccccc1)c1ccccc1	23%	0	-0.9	-0.1%
4	Cc1ccc(OCCNC(=O)c2ccc(COc3ccccc3)o2)cc1	/	-4	-4.4	0.4%
5	O=C(CN1CCCCC1)N1N=C(c2cccs2)CC1c1cccs1 (stereo not given)	11%	-15	-2.9	1.5%
6	CC(C)CCOc1ccc(C(=O)NN2C(=O)NC3(CCCCC3)C2=O)cc1	/	10	-2.8	-0.1%
7	Cc1ccc(CNC(=O)CSCc2ccccc2F)cc1	-3%	-17	-2.7	1.1%
8	Nc1ncnc2c1ncn2[C@@H]1O[C@H](CO)C[C@H]1O	/	/	-2.4	?
9	CCCOC1CCCN(C(=O)c2ccc(OC3CCN(C(=O)CCOC)CC3)cc2)C1 (stereo not given)	8%	0	-2.2	0.5%
10	O=CN1CCN(C(C(=O)NC2CCCC2)c2cc3c(cc2[N+](=O)[O-])OCO3)CC1 (stereo not given)	17%	7	-0.5	5.6%

nr	D2 PAM	CtBP-E1A inh	Six1-Eya2 blk
1	-1	9	4
2	-23	8	0
3	-6	-1	12
4	-10	19	-3
5	-4	-7	-2
6	1	2	-2
7	-14	-8	9
8	-3	7	1
9	7	-2	4
10	-32	9	-7

The results go on.
nr	compound	Sfp inh	TRPV1 potentiator	D2 ag	PINK1 expr mod
11	COc1ccc(Cl)cc1NS(=O)(=O)c1cccc(C(=O)NC2CC2)c1	/	/	-3.7	0.5%
12	COc1ccc(-c2csc(N(CC3CCCO3)C(=O)c3ccco3)n2)cc1 (stereo not given)	-22%	-5	-1.8	10%
13	O=S(=O)(c1ccc(N2CCN(S(=O)(=O)c3ccccc3)CC2)nc1)N1CCCC1	11%	0	-0.8	5.9%
14	CC(C)(C)c1nnc2sc(SCC(=O)NCc3ccco3)nn2c1=O	/	3	-0.8	-2.4%
15	COc1ccc(C(=O)NCCSc2ccccc2C)cc1	3%	3	0.1	7.7%
16	O=C(CN1CCN(C(=O)C2COc3ccccc3O2)CC1)Nc1ccc(F)cc1 (stereo not given)	15%	/	-2.2	3.6%
17	Cc1ccc(-c2nc3ccc(Cl)cn3c2Cc2cccc(F)c2)cc1	/	/	-6.3	5.8%
18	COc1cc(OC)c(OC)cc1/C=N/N(C)c1ccccc1	?	3	-2.5	0.9%
19	S=C1N[C@H]2CCCC[C@@H]2N1	11%	-2	-3.3	0.0%
20	Cc1cc(C)n(-c2nnc(N3CCN(c4ccccc4)CC3)nn2)n1	-11%	?	-0.7	-1.7%

nr	D2 PAM	CtBP-E1A inh	Six1-Eya2 blk
11	-11	1	7
12	3	-5	-10
13	-2	3	-12
14	1	-1	-8
15	-37	/	0
16	-9	9	12
17	-8	1	-3
18	4	?	-66*
19	-1	/	10
20	11	0	12

Remaining list, next part
nr	compound	Sfp inh	TRPV1 potentiator	D2 ag	PINK1 expr mod
21	COC(=O)N1C(=O)[C@](c2ccccc2)(C2CCCCC2)N1C(=O)OC	2%	-21	-2.1	0.8%
22	CN(CC(=O)NCCc1ccc(Cl)cc1)S(=O)(=O)c1cccs1	12%	25	0.9	-2.4%
23	Cc1ccc(NS(=O)(=O)c2ccccc2)c(NS(=O)(=O)c2ccccc2)c1	/	/	-4.6	-2.6%
24	CC(=O)Nc1nc(C=C(Cl)Cl)cs1	-28%	-3	-1.2	-0.4%
25	S=C(Nc1cccc(Cl)c1)Nc1ccccc1Oc1ccccc1	9%	-8	-1.7	?
26	CCOc1ccccc1C(=O)NCC(=O)NNC(=O)c1cccs1	/	/	7.0	-1.0%
27	Cc1nn(-c2ncc(C(F)(F)F)cc2Cl)c(=O)n1-c1cccc(F)c1	21%	20	-3.7	1.4%
28	COc1ccccc1NS(=O)(=O)c1cc(C(=O)NCC(C)(C)N2CCOCC2)ccc1C	/	0	-3.7	2.8%
29	CNc1cccc(-c2cc(OC)c(OC)c(OC)c2)n1	/	/	-6.3	8.9%
30	CCc1ccc(N(C(=O)c2csnn2)C(C(=O)NC(C)(C)CC)c2cccnc2)cc1 (stereo not given)	9%	-3	-0.7	0.0%

nr	D2 PAM	CtBP-E1A inh	Six1-Eya2 blk
21	-3	0	1
22	-1	5	-5
23	-2	-9	9
24	7	-5	0
25	-24	-7	-15
26	-6	0	2
27	-10	5	-15
28	-3	0	4
29	-3	-8	-6
30	-7	9	10

Structural class: the entries above with a furan ring, fused or not.
nr	compound	Sfp inh	TRPV1 potentiator	D2 ag	PINK1 expr mod
4	Cc1ccc(OCCNC(=O)c2ccc(COc3ccccc3)o2)cc1	/	-4	-4.4	0.4%
12	COc1ccc(-c2csc(N(CC3CCCO3)C(=O)c3ccco3)n2)cc1 (stereo not given)	-22%	-5	-1.8	10%
14	CC(C)(C)c1nnc2sc(SCC(=O)NCc3ccco3)nn2c1=O	/	3	-0.8	-2.4%

nr	D2 PAM	CtBP-E1A inh	Six1-Eya2 blk
4	-10	19	-3
12	3	-5	-10
14	1	-1	-8

Continued:
nr	compound	Sfp inh	TRPV1 potentiator	D2 ag	PINK1 expr mod
31	Cc1cc2nc(-c3ccc(=O)[nH]c3)n(C)c2cc1C	11%	?	1.8	0.4%
32	Cc1cc(Cl)ccc1OCC(=O)NCCOc1nc(N2CCCCC2)nc(N2CCOCC2)n1	8%	1	-4.7	4.6%
33	COc1ccc(NS(=O)(=O)c2ccc(N3CCCCC3)c(N)c2)cc1	/	-1	-3.8	12%
34	O=C(NCC1CCCO1)c1ccc(NC(=O)C2CC=CCC2C(=O)O)cc1 (stereo not given)	8%	?	1.1	0.6%
35	O=C(O)CCCC(=O)Nc1ccccc1SCCS(=O)(=O)c1ccc(Cl)cc1	56µM*	1	-3.8	-0.3%
36	CC1=C(C(=O)N(C)C)CC(CC(=O)NCc2cccs2)C(=O)N1Cc1ccc(F)cc1 (stereo not given)	/	/	-6.7	1.1%
37	CC(C)(CNC(=O)c1ccc(S(=O)(=O)Nc2cccc(C(F)(F)F)c2)cc1)N1CCOCC1	/	13	-0.5	2.9%
38	COc1cc(C(=O)NCc2nnc(SCC(=O)Nc3cc(C)on3)o2)cc(OC)c1OC	-21%	-8	3.2	2.7%
39	Cc1cc(-c2onc(C)c2C(=O)Nc2ccc(C(F)(F)F)cc2)no1	4%	/	-2.9	-0.9%
40	O=S(=O)(c1ccc(N2CCOCC2)nc1)N(Cc1ccccn1)Cc1ccccn1	-1%	1	0.7	-0.3%

nr	D2 PAM	CtBP-E1A inh	Six1-Eya2 blk
31	1	9	5
32	-12	-3	-1
33	-6	/	-12
34	-5	0	-4
35	-9	3	4
36	-11	5	2
37	-3	/	8
38	4	1	-2
39	-7	7	19
40	-12	-10	-1

(list continues)
nr	compound	Sfp inh	TRPV1 potentiator	D2 ag	PINK1 expr mod
41	CCc1noc(C)c1C(=O)N(CC(C)C)c1c(N)n(Cc2ccccc2)c(=O)[nH]c1=O	/	-1	-4.4	-1.8%
42	Cc1cnc(C(=O)Nc2ccccc2C(=O)N2CCOCC2)cn1	-4%	-9	-2.6	0.7%
43	O=C(CSc1ncn[nH]1)CSc1ncn[nH]1	50µM*	8	-2.8	-1.3%
44	COc1ccc(-c2cc(-c3nnc(COC(=O)c4ccc(O)cc4)o3)c3ccccc3n2)cc1OC	13%	3	6.7	0.7%
45	NC(=O)c1ccc(-c2ncc(-c3ccccc3)o2)cc1	13%	-16	-0.4	-4.6%[38.3 µM]
46	O=c1[nH]c(C2CCCN(S(=O)(=O)c3ccccc3)C2)nc2c1nnn2Cc1ccc(OC(F)(F)F)cc1 (stereo not given)	-11%	10	-1.2	14%&1.6%
47	O=C(Cc1ccc(Br)cc1)NC1CCSC1=O (stereo not given)	8%	-10	-4.9	-0.5%
48	Cc1ccc(NS(=O)(=O)c2ccc(C(=O)NCC(c3ccco3)N(C)C)cc2)cc1 (stereo not given)	5%	4	-15	1.4%
49	CCN(CC)CCC12CC(C)OC1=Nc1ccccc1NC2=O (stereo not given)	/	/	-4.1	1.2%
50	CCN(CC)C(=O)C(=O)Nc1ccc(F)c(Cl)c1	17%	-3	5.7	-0.6%

nr	D2 PAM	CtBP-E1A inh	Six1-Eya2 blk
41	-15	7	6
42	-3	0	4
43	0	2	7
44	25	?	-26
45	7	-9	-3
46	-5	5	5
47	-5	4	8
48	-20	1	0
49	-3	0	1
50	-2	4	3

Later entries.
nr	compound	Sfp inh	TRPV1 potentiator	D2 ag	PINK1 expr mod
51	CC(Oc1ccccc1F)C(=O)NNC(=O)c1cc2ccccc2o1 (stereo not given)	17%	17	-1.8	-0.4%
52	COc1cc2c(cc1OC)C(c1cc(Br)ccc1F)N(C(=O)CCl)CC2 (stereo not given)	-5%	10	-3.3	-0.8%
53	Cc1nnc(SCC(=O)NCc2ccc(F)cc2)[nH]c1=O	12%	1	0.0	1.5%
54	Cc1ccc(C(=O)N[C@H](C(=O)OCC(=O)Nc2cccc(S(N)(=O)=O)c2)C(C)C)cc1	3%	2	-1.1	0.5%
55	Cc1ccc(SCc2cn3c(C)csc3n2)cc1	-5%	5	-0.2	3.5%[38.3 µM]
56	CCN/C=C(\C#N)S(=O)(=O)c1ccc(Br)cc1	2%	?	-2.6	-0.5%
57	COC(=O)C1=C(CSc2nc3ccccc3s2)NC(=O)NC1c1ccc(F)cc1 (stereo not given)	-26%	8	-3.6	2.8%
58	COc1ccc(CN2CC[C@H]3C=CC[C@@H](C(=O)Nc4ccc(Cl)c(C(F)(F)F)c4)[C@H]3C2=O)cc1OC	/	/	-0.4	1.6%
59	CC(=O)Nc1ccccc1NS(=O)(=O)c1cccc([N+](=O)[O-])c1	2%	5	-1.9	-0.8%
60	O=C(N[C@H]1CCC(=O)N([C@H](CSc2ccccc2)Cc2ccccc2)CC1)OCc1ccccc1	-3%	-2	-2.7	-0.2%

nr	D2 PAM	CtBP-E1A inh	Six1-Eya2 blk
51	-2	6	5
52	-40	/	0
53	-5	/	-1
54	-3	6	7
55	2	-11	-20
56	-4	-1	1
57	-1	-11	4
58	-25	-5	1
59	-4	3	-6
60	-17	-5	-4
